Screening data from PubChem.
Sfp PPTase inh: blocks B. subtilis Sfp PPTase activity; Biochemical Sfp PPTase activity, qHTS; Potency, µM, inactives show max response, negative = inhibition, hits mostly inhibitors; actives 3.5% (n = 310,000); active = well fitted inhibition curve with a large enough effect; inconclusive = small, poorly fitted or top-dose-only effect, or another doubt; inactive = no such curve, though single readings can be large or run the other way;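 note: the enzyme is Sfp with the accession as filed and its product quenches rhodamine fluorescence; potency is the fitted concentration of half-maximal effect; 0% = enzyme reaction without inhibitor and -100% = no enzyme wells; top concentration of the series not given in the record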
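With Hepes-Na pH 7.6 buffer containing 10 mM MgCl2, Sfp (15 nM) modified BHQ-2-YbbR (12.5 uM) using rhodamine-CoA (5 uM). Two reads 30 minutes apart at 525/598 nm yielded each well's rate.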
ClpP mod: qHTS Assay for Activators of ClpP; ATP-dependent Clp protease proteolytic subunit (Bacillus subtilis (strain 168)), P80244; purified B. subtilis ClpP, FRET peptide cleavage, 20 min; Potency, µM (series often up to 57.5 µM), for inactives: at the highest dose activity change, negative = active; actives 1.9% (n = 340,000); AID 651965, 2013; active = well fitted falling curve with a large enough effect; inconclusive = small, poorly fitted or top-dose-only effect; inactive = no such curve, though single readings can be large or run the other way; note: potency is the fitted concentration of half-maximal effect; the source files actives as falling curves though it sought activators and does not explain the sign; nearly all actives have a fitted effect of over 65% in size; many hits overshoot -100%
Target sequence (P80244 whole entry, looked up): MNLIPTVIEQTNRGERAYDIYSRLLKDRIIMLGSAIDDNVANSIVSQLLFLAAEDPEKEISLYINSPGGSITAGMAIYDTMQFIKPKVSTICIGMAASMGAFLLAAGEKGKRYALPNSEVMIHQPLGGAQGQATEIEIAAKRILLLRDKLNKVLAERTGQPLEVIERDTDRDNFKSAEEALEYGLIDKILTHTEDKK
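FRET quenching reversal measured ClpP activation: 10 microg/mL B. subtilis ClpP at pH 8 with the FRET-FV decapeptide, read at 430 nm after 320 nm excitation. The 20-min minus 0-min signal was scaled between DMSO/no-enzyme wells and ADEP (5.8 microM final).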
TRPML1 ag: human mucolipin-1 channel agonism; activation, % (no concentration beside the values); Q9GZU1; TRPML1-expressing cells, Ca2+ dye fluorescence, FDSS; host cell line not named in the record; reference of the full effect not given here; actives 0.12% (n = 410,000); AID 624414; in the data active = activation above about 50%; inconclusive = about 30% to 50%; inactive = below about 30%; note: 0% is about no effect; the text of the record puts the active cut at 80%
Target sequence (Q9GZU1 whole entry, looked up): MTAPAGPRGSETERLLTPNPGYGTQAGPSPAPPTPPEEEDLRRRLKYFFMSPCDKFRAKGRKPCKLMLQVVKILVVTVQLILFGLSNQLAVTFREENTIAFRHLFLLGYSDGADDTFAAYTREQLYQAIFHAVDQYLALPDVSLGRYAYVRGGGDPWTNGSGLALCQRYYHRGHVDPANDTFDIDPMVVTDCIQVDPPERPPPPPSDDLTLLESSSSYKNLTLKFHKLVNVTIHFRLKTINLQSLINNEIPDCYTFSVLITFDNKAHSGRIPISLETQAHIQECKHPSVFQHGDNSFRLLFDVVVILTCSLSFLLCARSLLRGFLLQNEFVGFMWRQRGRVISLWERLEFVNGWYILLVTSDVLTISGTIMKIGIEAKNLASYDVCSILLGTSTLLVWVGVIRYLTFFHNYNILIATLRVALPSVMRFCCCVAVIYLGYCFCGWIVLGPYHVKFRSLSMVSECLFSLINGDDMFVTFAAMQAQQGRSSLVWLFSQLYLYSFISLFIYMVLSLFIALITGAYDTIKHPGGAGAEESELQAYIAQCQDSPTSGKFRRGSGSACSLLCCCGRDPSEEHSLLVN
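Tet-induced TRPML1-DL cells, 1,500 per well, cultured overnight, were loaded with a no-wash Ca2+ dye for 45–90 min. Calcium fluorescence was recorded on the FDSS for 110 s after compound addition, before the EC80 agonist (4 uM 54-4) was added.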
TRPV1 PAM: human TRPV1 potentiation | Q8NER1 | TRPV1-expressing cells, Fluo-8 calcium influx, capsaicin EC20 potentiation; host cell line not named in the record; control for the full effect not named in the record | potentiation, % at 8.33 µM | actives 0.02% (n = 320,000) | AID 540277; active means potentiation above 80%; inconclusive means 30% to 80%; inactive means below 30%; note: 0% is about no effect
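TRPV1-expressing cells were cultured overnight at 35.5C and loaded with Fluo-8 calcium dye for 40 to 90 min at room temperature. After a 10 s baseline, compound was added and calcium influx was read kinetically for 3 min (ex 480/em 520 nm).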
Menin-MLL FL inh: menin-MLL binding inhibition, fluorescein peptide | FP activity change, % at 61.4 µM | Fluorescence polarization, fluorescein-MLL peptide displacement from menin | AID 1766 | 290,000 tested, under 10 active; inconclusive = falling polarisation curve, or a change in total fluorescence; inactive = total fluorescence flat and polarisation flat or rising; no compound was filed as active; the % refers to the polarisation; negative = inhibition;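 note: % of control where 0% means no effect; inhibitors lower the polarisation; unlabelled MLL peptide was the positive control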
PINK1 modulator: changes PINK1 expression | PINK1 immunofluorescence, high-content cytometry, 24 h | Potency, µM (doses to about 76.6 µM), inactives show top-dose activation (PINK1 increase), most hits filed as activators | actives 0.2% (n = 410,000); active = well fitted activation curve with a large enough effect; inconclusive = small, poorly fitted or top-dose-only effect; inactive = flat fitted curve, though single readings scatter; cell line not stated here;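 note: potency is the fitted concentration of half-maximal effect; % of control where 0% means no effect; nearly all actives have a fitted effect of over 65% in size; a mitochondrial uncoupler was the plate control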
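Cells are seeded, rested 12 hours, then given compound at five concentrations or DMSO for 24 hours. After fixation, blocking and antibody staining, PINK1 amount and mitochondrial localization are scored; CCCP serves as control.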
TRPML1 blocker: human mucolipin-1 channel inhibition | Q9GZU1 | TRPML1-inducible cells, Ca2+ dye fluorescence, FDSS; active compounds read low; inhibition of EC80 agonist-evoked calcium signal | AID 624415 | actives 0.02% (n = 390,000) | activity change, negative = inhibition, % (no concentration beside the values); in the data active means activity change below about -50%; inconclusive means about -30% to -50%; inactive means above about -30%;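 note: stimulus is agonist 54-4 at its EC80 concentration; % is set by controls: 0 for no effect and ±100 for the full control effect; compound concentration not given in the record; the text of the record puts the active cut at -80%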
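Tet-induced TRPML1-DL cells loaded with Ca8 no-wash calcium dye were read kinetically on FDSS. Compound addition was followed by EC80 agonist 54-4 (4 uM final); inhibition was read over 110 s.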
Active calls of the source: *; ? = inconclusive; . = no result given; & = joins results of further samples; [ ] = another dose, or the depositor's remark.

Under each structure: TRPML1 ag	PINK1 modulator	Menin-MLL FL inh	ClpP mod	TRPV1 PAM	Sfp PPTase inh	TRPML1 blocker
CNC(=O)c1cc(-c2ccc(Cl)cc2)n(-c2ccccc2)n1
→ 2.5	4.1%	-3.8	.	-7	0%	22
CCCc1c2c(cc3c(=O)cc(C(=O)OCC)oc13)CCCC2
→ 2.1	?	24	-0.9%	3	-15%	6
CCOc1cc(/C=C2\C(=O)ON=C2c2ccccc2)ccc1OC
→ .	-0.8%	-8.9	0.5%	3	28µM*	.
CN(C)S(=O)(=O)n1cc(/C=C(\NC(=O)c2ccccc2Cl)C(=O)N2CCOCC2)c2ccccc21
→ -0.7	3.5%	0.6	-5.8%	20	19%	10
Cc1ccc(S(=O)(=O)/N=C2/NC(=O)/C(=C/c3cccnc3)S2)cc1
→ 0.0	4.6%	4.6	-6.1%	-7	2%	-6
CCOC(=O)c1c(NC(=O)c2nc(SC)ncc2Cl)sc(C)c1C
→ -0.8	3.9%	.	-1.4%	.	.	3
Cc1ccccc1OCC(=O)Nc1ccc(NC(=O)c2ccco2)cc1
→ 5.6	10%	-4.6	-16%	6	3%	13
CCCN1CCC(=O)N(C(CSc2ccc(OC)cc2)Cc2ccccc2)CC1 (configuration not stated)
→ 1.2	.	-1.5	.	.	-7%	1
Cc1cc(=O)[nH]c(CN2CCOCC2)n1
→ -0.5	0.2%	-6.1	.	-12	-8%	2
COc1cc(S(=O)(=O)N2CCn3cccc3C2C)ccc1NC(C)=O (configuration not stated)
→ 0.4	0.7%	.	-0.3%	.	.	9
CN(C)CCCN(C(=O)c1ccco1)c1nc2ccc(Br)cc2s1
→ -0.5	-0.1%	2.7	.	27	-9%	14
CC1CCCC(NC(=O)NC(=O)COC(=O)C2=NN(c3ccccc3)C(=O)CC2)C1C (configuration not stated)
→ 2.2	3.0%	.	-0.7%	-9	.	8
C=CCNC(=O)C1CCN(c2c([N+](=O)[O-])cc(C(F)(F)F)cc2[N+](=O)[O-])CC1
→ 0.2	?	-1.2	-2.3%	-14	19%	11
CC1(NC(=O)CC[N+](C)(C)CCO)CS(=O)(=O)CC1S(=O)(=O)[O-] (configuration not stated)
→ .	.	11	.	-3	-8%	.
COc1ccc(OC(=O)C(C)N2C(=O)c3ccccc3C2=O)cc1 (configuration not stated)
→ -0.2	-0.3%	-1.1	-1.4%	-12	18%	15
Cc1ccc(F)cc1NS(=O)(=O)c1ccc(Cl)s1
→ 3.2	1.0%	.	-2.1%	19	.	-9
CCCS(=O)(=O)NC(=O)C1(C)CCN(C(=O)c2ccc(C(F)(F)F)cc2)C1 (configuration not stated)
→ -0.4	2.9%	.	-4.6%	.	.	.
CCCCn1c(N)c(N(CC(C)C)C(=O)COC(=O)c2ccccc2NCCO)c(=O)[nH]c1=O
→ -0.1	-0.4%	.	16µM*	-11	.	-5
N#C/C(=C\c1cccc([N+](=O)[O-])c1)c1ccccn1
→ 0.0	2.6%	-0.9	.	-2	-3%	27
CCn1cc(CNC(=O)CCSc2nc(-c3ccco3)cc(C(F)(F)F)n2)cn1
→ 0.4	6.3%	0.7	-0.6%	-9	2%	7
CCC1SC(CC)C(=O)N(CC(=O)NCCc2ccccc2)C1=O (configuration not stated)
→ -0.8	0.3%	-1.8	-2.3%	-11	7%	8
COc1cc(C2N(c3ccccc3)CCN2c2ccccc2)cc(OC)c1OC
→ -0.7	?	3.2	-8.9%	-9	-20%	-5
COc1ccc(NC(C)=O)cc1NC(=O)C1CCN(C(=O)Nc2ccccc2)CC1
→ 0.7	-0.6%	.	0.2%	4	.	10
O=C(C(=O)N1CCN(c2ccccc2F)CC1)c1cn(CC(=O)N2CCCC2)c2ccccc12
→ 0.2	-0.5%	.	-5.7%	.	.	1
O=C(NCc1ccccn1)c1c(Cl)cccc1Cl
→ 5.0	3.7%	1.2	0.7%	-4	12%	45
Cc1ccc2nc(C)c(C(=O)N/N=C/c3ccco3)cc2c1
→ 0.7	0.0%	7.3	0.3%	-5	10%	71
CC(=O)NC12CC3CC(C1)CC(C(=O)OCC(=O)Nc1c(F)cccc1F)(C3)C2
→ 0.5	0.3%	.	-3.3%	-12	.	6
CC(=O)Nc1c(F)c(F)c(F)c(F)c1F
→ -0.1	0.0%	5.9	1.2%	24	11%	40
COC(=O)C1=C(C)NC2=C(C(=O)c3ccccc32)C1c1cccc(OC)c1 (configuration not stated)
→ -1.2	0.7%	4.8	-0.3%	-9	11%	-10
CCN1CCN(C(=O)c2cc(-c3ccc(Cl)s3)nc3ccccc23)CC1
→ 0.0	-0.5%	-1.0	3.7%	8	-9%	-13
CSc1ccc(CN2CCCC(CO)(Cc3ccccc3)C2)cc1 (configuration not stated)
→ 1.6	13%	7.2	-0.2%	-11	-11%	-1
O=C(NCCCO)c1nn(-c2ccc(Cl)cc2)nc1CO
→ 1.0	2.0%	.	14µM*	.	.	0
Nc1nonc1-n1nnc(C(=O)N/N=C/c2ccc(Cl)cc2Cl)c1CN1CCOCC1
→ -0.5	?	1.5	.	4	11%	15
O=C(O)CCNS(=O)(=O)c1cccc(Br)c1
→ -0.1	-0.4%	1.0	0.7%	9	16%	-9
O=C1c2ccccc2-c2cccc(C(=O)N3CCCCCC3)c21
→ 0.3	-1.2%	0.8	-3.2%	0	4%	-9
COC(=O)C[C@@H]1C[C@@H]2c3cc(NS(=O)(=O)c4ccc(F)cc4)ccc3O[C@@H]2[C@@H](CO)O1
→ -0.2	0.3%	.	1.3%	.	.	15
O=C(Nc1c2c(nn1-c1ccccc1)CS(=O)(=O)C2)C1CCCC1
→ 0.5	-1.0%	.	-0.2%	2	11%	24
COc1ccc(NC2CCCN(C(=O)CCc3ccccc3F)C2)cc1 (configuration not stated)
→ 1.2	0.5%	0.7	-1.9%	-1	19%	34
CCOc1ccc(NC(=O)N2CCN(S(=O)(=O)c3ccc4c(ccn4C)c3)CC2)cc1
→ 1.1	1.3%	.	-17%	.	.	12
CCOc1ncnc2c1oc1nc(CC(C)C)c3c(c12)CC(C)(C)OC3
→ 3.2	9.3%[38.3 µM]	2.0	-0.2%	-9	3%	-5

Rewritten field by field: 2 of the compounds above
molecule: COC(=O)C1=C(C)NC2=C(C(=O)c3ccccc32)C1c1cccc(OC)c1 (configuration not stated)
  TRPML1 ag: -1.2
  PINK1 modulator: 0.7%
  Menin-MLL FL inh: 4.8
  ClpP mod: -0.3%
  TRPV1 PAM: -9
  Sfp PPTase inh: 11%
  TRPML1 blocker: -10

molecule: CCN1CCN(C(=O)c2cc(-c3ccc(Cl)s3)nc3ccccc23)CC1
  TRPML1 ag: 0.0
  PINK1 modulator: -0.5%
  Menin-MLL FL inh: -1.0
  ClpP mod: 3.7%
  TRPV1 PAM: 8
  Sfp PPTase inh: -9%
  TRPML1 blocker: -13

More structures follow:
Under each structure: TRPML1 ag	PINK1 modulator	Menin-MLL FL inh	ClpP mod	TRPV1 PAM	Sfp PPTase inh	TRPML1 blocker
C[C@H]1CN(S(=O)C(C)(C)C)[C@H](CCO)/C1=C\c1ccccc1 (some centres not stated)
→ -0.4	-0.5%	.	-2.2%	.	.	1
CC(NC(=O)c1ccccc1F)C1CC1 (configuration not stated)
→ -1.2	2.8%	-0.7	-4.9%	-2	-1%	10
Cc1cc2oc(=O)cc(CN(C)Cc3ccccc3)c2cc1C(C)C
→ 0.9	23%	0.3	.	-9	-15%	12
CC1CCCCC1NC(=O)CSc1nnc(CC(=O)Nc2ccccc2F)n1C (configuration not stated)
→ 0.0	1.6%	-6.5	.	10	5%	-7
CCC1Oc2ccc(C)cc2N(CC(=O)N2CCN(c3ccc(F)cc3)CC2)C1=O (configuration not stated)
→ 0.5	-0.5%	6.1	-3.2%	1	-6%	-11
CN(C)c1nc(Nc2ccc(F)cc2)nc(Oc2ccc(F)cc2)n1
→ -1.1	0.2%	0.6	1.0%	-7	0%	0
Cc1ccccc1NC(=O)Cn1nnc2c(cnn2-c2ccc(F)cc2)c1=O
→ -0.2	?	-0.2	-13%	3	?	-4
O=C1C=C(O)CC(c2ccc(Cl)cc2)C1 (configuration not stated)
→ 3.0	0.1%	-1.5	2.7%	12	10%	-2
CCc1nc(N)c(C#N)c(-c2cccnc2)c1C
→ -0.3	-0.4%	-0.3	-23%	-11	-2%	-3
COc1nc(-c2ccc(Cl)cc2Cl)nc2ccccc12
→ 1.8	14%	3.8	.	18	17%	-9
O=c1oc2ccccc2c(Nc2cc3ccccc3cc2O)c1[N+](=O)[O-]
→ 2.7	?	?	.	1	-10%	-10
COc1cccc(C(C)(O)c2nc(-c3ccc4ccccc4c3)cs2)c1 (configuration not stated)
→ -0.2	2.0%	.	-9.9%	.	.	.
Cc1ccc(C(C)C)c(OCC(=O)NN=C2CCCCCCC2)c1
→ 1.9	7.6%	-8.7	1.5%	-1	-13%	6
CC(=O)N/C(=C/c1ccc2c(c1)OCO2)C(=O)NCCCO
→ 0.0	2.3%	1.3	-1.5%	-5	7%	-8
COc1ccc(NC(=O)[C@@H]2CC=C[C@@H]3CCN(Cc4ccc(Cl)c(Cl)c4)C(=O)[C@@H]32)cc1
→ 1.4&-0.3	-1.7%	.	-4.3%&-5.0%	.	.	-13
Cc1ccc(NC(=O)[C@H](C)NC(=O)C2CCN(C(=O)[C@@H](NC(=O)OC(C)(C)C)C(C)C)CC2)cc1
→ 0.2	-0.9%	-6.0	-2.8%	-2	8%	-13
CC(Sc1nnc(CN2CCCC2)n1Cc1ccccc1)C(=O)Nc1ccc(F)cc1 (configuration not stated)
→ 2.0	0.2%	.	3.9%	21	6%	27
COC(=O)c1ccc(NC(=O)C(c2ccccc2)N2Cc3ccccc3C2=O)cc1 (configuration not stated)
→ 3.9	-5.8%	.	-3.6%	.	.	32
CCCCn1c(N)c(N(CC(C)C)C(=O)CCCc2nc3ccccc3c(=O)[nH]2)c(=O)[nH]c1=O
→ -0.1	0.2%	.	-0.8%	-7	.	-13
COc1ccc(C(CNC(=O)c2cccc(Br)c2)N2CCCC2)cc1 (configuration not stated)
→ 0.2	-5.6%[38.3 µM]	1.8	-3.0%	-9	3%	-4
Cc1cc(C(=O)CSc2nnc(-c3ccc(Cl)cc3)n2CC2CCCO2)c(C)n1C (configuration not stated)
→ -0.1	-3.7%	5.3	-0.5%	-1	-11%	-10
COc1ccc(Oc2ncc3nc(-c4ccc(OC)cc4)c(=O)n(C)c3n2)cc1
→ .	0.6%	-0.7	.	.	-5%	.
O=C(NCc1ccc(OC(F)(F)F)cc1)C1CC(c2ccccc2[N+](=O)[O-])=NO1 (configuration not stated)
→ -0.3	0.0%	0.7	-0.2%	.	2%	9
